Calb FLC: affects C. albicans growth with fluconazole; 0.57% of 300,000 active; C. albicans CaCi-2 (fluconazole-resistant clinical isolate) + fluconazole, Alamar Blue growth, 48 h; growth inhibition, % (no concentration beside the values); AID 1979;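 active = most replicates above 75%; inconclusive = exactly half above 75%; inactive = most below 75%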;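 also: all wells also contain fluconazole at 8 µg/ml as a sub-toxic cotreatment; 0% = median of DMSO wells and 100% = median of geldanamycin control wells; wells of about 8 µL received 7.5 nL stock; the first replicate is given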
Beta cell apopt: beta cell apoptosis inhibition; 0.8% of 300,000 active; protection from apoptosis, % (no concentration beside the values); INS-1E cytokine-induced death, ATP luminescence, 48 h; percent of positive-control rescue, neutral wells zero; AID 435005;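 active = all replicates at 75% or more, or half of them and the mean; inconclusive = half reach 75% but not the mean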;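 also: 0% = cytokine-treated negative control wells and 100% = positive control rescue; higher means more ATP so stronger rescue from cytokine killing; wells of about 40 µL received 100 nL stock; the first replicate is given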
AF4-AF9 inh: MLL-AF4/AF9 protein interaction inhibition | AlphaScreen, biotin-AF4 peptide binding to FLAG-AF9 | AID 651704 | 0.47% of 350,000 active | inhibition, % at 10 µM;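 active = every replicate reaching a set inhibition limit, whatever the replicate mean, cut at about 25% in these data; inconclusive = mean inhibition reaches that limit but some replicates miss it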;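 also: 0% = plate neutral control median and 100% = total signal loss; the record names both 10 and 1 µM as test concentration; the first replicate is given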
Target sequence (P42568 whole entry, looked up): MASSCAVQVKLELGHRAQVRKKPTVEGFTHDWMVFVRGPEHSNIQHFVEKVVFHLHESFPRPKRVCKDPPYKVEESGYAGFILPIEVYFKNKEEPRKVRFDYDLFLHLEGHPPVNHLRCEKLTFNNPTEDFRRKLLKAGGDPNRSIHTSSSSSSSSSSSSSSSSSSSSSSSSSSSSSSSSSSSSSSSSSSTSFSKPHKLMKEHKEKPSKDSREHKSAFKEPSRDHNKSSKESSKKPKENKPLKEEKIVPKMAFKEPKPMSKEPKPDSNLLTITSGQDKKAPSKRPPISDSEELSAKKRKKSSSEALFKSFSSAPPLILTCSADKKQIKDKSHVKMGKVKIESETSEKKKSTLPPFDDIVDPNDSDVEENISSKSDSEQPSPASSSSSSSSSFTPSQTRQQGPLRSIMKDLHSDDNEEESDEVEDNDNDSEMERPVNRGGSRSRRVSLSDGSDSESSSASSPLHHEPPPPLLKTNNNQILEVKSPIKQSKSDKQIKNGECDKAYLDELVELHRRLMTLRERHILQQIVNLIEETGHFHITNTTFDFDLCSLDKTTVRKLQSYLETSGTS
A1 inh: inhibitors of the anti-apoptotic protein A1, read as caspase activation; AID 2462; MEF A1-2A-BIM cells, Caspase-Glo 3/7 luminescence, 3 h; percent of clofoctol response, vehicle zero; caspase activation, % (no concentration beside the values); 0.066% of 330,000 active;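 active = over half of replicate activation scores above 10%, or exactly half above 10 with the replicate mean above 10; inconclusive = replicate mean below 10 yet half the replicates above 10; inactive = over half of replicates below 10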;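 also: wells of about 30 µL received 50 nL stock; many hits fall short of the cut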
RanGTP-Imp inh: inhibitors of RanGTP-importin-beta interaction, primary screen, biochemical, FRET, CFP-Ran, YFP-importin-beta, homogeneous | cell-free CFP-Ran/YFP-importin-beta FRET ratio | 1.1% of 300,000 active | AID 2216 | inhibition, % (no concentration beside the values);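 active = most replicates above 15%; inconclusive = exactly half above 15%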;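 also: 0% = DMSO wells and 100% = Ran loaded with GDP instead of GTP; wells of about 40 µL received 100 nL stock; the first replicate is given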
T cruzi inh: blocks replication of Trypanosoma cruzi; T. cruzi beta-gal in NIH3T3, luminescence, 90 h; inhibition, % (no concentration beside the values); 1.4% of 300,000 active;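 active = mean inhibition across valid replicates above about 55%, limit read from the data; inconclusive = mean below that limit but half or more replicates reach it; inactive = mean below it, under half of replicates reach it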;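 also: signal also drops with host cell toxicity which is not excluded here; 0% = plate median of DMSO wells and 100% = zero luminescence signal; higher percent means less beta-gal luminescence so fewer parasites; stock transfer was 50 nL into about 50 µL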
Ecoli rRNA inh: inhibitors of bacterial rRNA selective over humanized ribosomes | E. coli WT GFP vs humanized-ribosome RFP mutants, fluorescence, 24 h; active compounds read low; DMSO median 0, no signal -100 | GFP signal change (wild-type ribosome), % (test concentration not listed) | 1.6% of 350,000 active;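 active = significant combined selectivity score with lowered wild-type GFP, culture density cut under 30%, mutant RFP and density less affected; inactive = any of these conditions unmet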; also: one replicate is shown; some compounds called inactive have numbers as strong as hits
Vif A3G: HIV-1 Vif–A3G interaction blockers – biochemical, TR-FRET, GST-Vif 1-94, biotin-A3G peptide, dose response retest, primary screen (AID 1117319); TR-FRET GST-Vif / biotin-A3G peptide binding; higher % means a stronger effect; test concentration not given here; strong numbers were not always called active; one-dose inhibition, %; IC50 in µM for titrated hits; 0.57% of 260,000 active;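 active = above the screen mean plus three standard deviations and confirmed in dose response; inconclusive = results disagree or hit not tested in dose response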;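 also: Vif residues 1-94 fused to GST binding biotinylated APOBEC3G peptide 110-148; 0% = full assay without inhibitor and 100% = GST in place of GST-Vif; retest series ran down from 100 µM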
Ecoli rRNA inh OD600: recorded beside Ecoli rRNA inh, whose call it bears; OD600 change, %; measured here: OD600 growth;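 optical density of the mix in the first replicate; 0 = DMSO median and -100 = no signal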
Ecoli rRNA inh RFP: recorded beside Ecoli rRNA inh, whose call it bears; RFP signal change, %; measured here: RFP humanized mutant strains;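 first replicate; 0 = DMSO median and -100 = no signal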
Numbers without * were called inactive; ? = inconclusive; . = no result given; & = joins results of further samples. This is a subset; rates above refer to the full screens.

Results follow in this order: Calb FLC	Beta cell apopt	AF4-AF9 inh	A1 inh	RanGTP-Imp inh	T cruzi inh	Ecoli rRNA inh	Ecoli rRNA inh OD600	Ecoli rRNA inh RFP	Vif A3G
> Cc1ccc(C(=O)Nc2cnc3sc(C)nn3c2=O)cc1
  19	-5	.	-0.7	0.1	-2	.	.	.	27%
> CCOC(=O)C(C)Oc1ccc(C2NC(=O)NC(C)=C2C(=O)Nc2ccccc2C)cc1 (stereo unspecified)
  1	.	1.8	.	-1.6	-15	8	4	0.2	-4%&6%
> CCOC(=O)CSc1cc(CSc2ccccc2)nc(-c2ccccc2)n1
  -10	-4	.	1.2	?	14	.	.	.	-3%
> COc1cc2c(cc1OC)CN(CC(=O)Nc1ccccc1SC)CC2
  ?	-1	3.6	-0.6	0.1	4	-20*	-14*	-0.8*	.
> C/C(=N\NC(=O)c1ccc(COc2ccccc2)cc1)c1ccncc1
  2	-4	0.0	0.2	-6.3	-30	-1	2	5.2	-2%
> CCCCNS(=O)(=O)c1ccc(NC(=O)C(Sc2ccccc2)c2ccccc2)cc1 (stereo unspecified)
  3	11	.	-0.7	-3.6	43	.	.	.	.
> CC1(OC(=O)c2ccco2)C(=O)C=C2C=C(c3ccsc3)OC=C2C1=O (stereo unspecified)
  2	-7	.	-0.3	-10	-13	.	.	.	.
> Cc1ccc(S(=O)(=O)N2CCCCC2)cc1C(=O)N(C)CC(=O)Nc1ccc(Cl)c(C(F)(F)F)c1
  -10	19	2.8	-0.3	8.3	28	-8	-11	1.4	.
> CCOC(=O)c1ccccc1NS(=O)(=O)c1ccccc1
  1	-2	.	1.0	-4.3	-14	.	.	.	-3%
> N/C(=N\OC(=O)/C=C/c1ccccc1)c1ccc(Br)cc1
  -6	-2	2.9	-1.0	0.0	-8	14	10	2.2	8%
> NC(=O)C1CCN(C(=O)c2ccc3ccccc3c2)CC1
  -3	.	-2.0	-0.8	0.0	-6	2	7	-3.2	.
> O=C1CCC(=O)N1c1nc2n(n1)C(c1ccccc1)C=C(c1ccc(Br)cc1)N2 (stereo unspecified)
  0	-3	.	-0.6	-14	-6	.	.	.	10%&1%
> CCOC(=O)CCSc1nc(C)c2cc(C)ccc2n1
  -7	-6	-2.8	-0.3	2.9	-2	-13	7	-3.1	-1%
> CN(CC(=O)NCc1ccc(F)cc1)S(=O)(=O)c1ccc(Br)s1
  -2	-2	-0.9	0.4	1.8	6	-22*	-15*	-5.1*	.
> CS(=O)(=O)c1ccc(Cl)c(NC(=O)COC(=O)c2ccc(-n3cnnn3)cc2)c1
  .	0	-4.2	-0.5	5.1	5	3	13	-1.1	-7%
> COCc1[nH]nc2c1C(c1c(F)cccc1Cl)C(C#N)=C(N)O2 (stereo unspecified)
  3	-4	.	0.9	.	.	.	.	.	-4%
> COC(=O)CC1C(=O)NCCN1C(=O)Nc1cccc(Cl)c1 (stereo unspecified)
  28	-7	-1.0	-0.6	-2.8	-2	19	11	1.4	1%
> CCOC(=O)c1cccnc1SCC(=O)NCc1ccccc1
  4	-5	.	0.3	4.1	3	.	.	.	4%
> Cn1c(SCc2n[nH]c(=S)o2)nnc1-c1ccccc1
  -4	-2	-2.5	0.1	5.2	7	-13	-16	3.0	-1%
> Cc1ccccc1CN(CC1CCC(C(=O)O)CC1)C(=S)Nc1ccccc1F (stereo unspecified)
  2	-4	-2.2	-0.4	-2.4	-1	-1	4	0.8	18%
> Cc1cc(C)c(S(=O)(=O)/N=C2\C=C(Nc3ccc(C(=O)O)cc3)C(=O)c3ccccc32)c(C)c1
  35	113*	-1.7	-0.1	2.2	17	-9	-2	-4.0	.
> Cn1c(=O)n(Cc2ccc(Cl)cc2)c(=O)c2c1nc1n2CCN1Cc1ccco1
  -9	4	.	0.7	-1.9	-6	.	.	.	-4%
> CC(=O)N1c2ccc(S(=O)(=O)N3CCCC(C(=O)NCc4ccccc4)C3)cc2CC1C (stereo unspecified)
  -2	9	-1.0	0.1	3.2	11	-9	-13	0.1	.
> FC(F)(F)C1=CC(c2ccccc2)=NCCN1
  0	-4	.	-0.9	5.0	-9	.	.	.	5%
> CCN1CCN(C(=O)C2CCN(Cc3cc(Cl)ccc3O)CC2)CC1
  41	1	7.0	0.4	1.0	9	9	14	2.7	1%
> Cc1cccc(C)c1NC(=S)N1CCCN(C)CC1
  -4	-6	-4.5	-0.7	-0.4	-19	6	11	1.3	.
> COc1ccc2oc(C(=O)OCC(=O)Nc3cc(S(=O)(=O)N4CCOCC4)ccc3OC)c(C)c2c1
  2	2	0.1	0.5	2.9	7	16	4	3.9	-1%
> O=C(COc1ccc(Br)cc1F)NCC1(N2CCCCC2)CCCCC1
  .	-2	2.3	3.0	.	.	-4	-2	20	-2%
> CCS(=O)(=O)c1ccc2oc(SCC(=O)N3c4ccccc4CC3C)nc2c1 (stereo unspecified)
  31	-4	.	2.0	1.0	1	-6	-7	-4.3	0%
> CC1(c2nnc(-c3ccccc3)o2)CC(c2ccccc2)=NO1 (stereo unspecified)
  -2	-8	-3.3	1.2	0.1	-10	-8	-8	16	.

Entries from the list above that contain an NH in an aromatic ring:
Results follow in this order: Calb FLC	Beta cell apopt	AF4-AF9 inh	A1 inh	RanGTP-Imp inh	T cruzi inh	Ecoli rRNA inh	Ecoli rRNA inh OD600	Ecoli rRNA inh RFP	Vif A3G
> COCc1[nH]nc2c1C(c1c(F)cccc1Cl)C(C#N)=C(N)O2 (stereo unspecified)
  3	-4	.	0.9	.	.	.	.	.	-4%
> Cn1c(SCc2n[nH]c(=S)o2)nnc1-c1ccccc1
  -4	-2	-2.5	0.1	5.2	7	-13	-16	3.0	-1%

The listing continues.
Results follow in this order: Calb FLC	Beta cell apopt	AF4-AF9 inh	A1 inh	RanGTP-Imp inh	T cruzi inh	Ecoli rRNA inh	Ecoli rRNA inh OD600	Ecoli rRNA inh RFP	Vif A3G
> COc1cc(OC)cc(-c2nnc(N(C)C(=O)c3ccncc3)s2)c1
  6	-9	-1.4	-1.7	-1.0	-7	1	0	-0.2	6%
> COc1cc(/C=N/NC(=O)c2cc(C3CC3)[nH]n2)cc(OC)c1OC
  -3	10	0.6	-1.0	-0.5	-1	-7	15	-0.7	.
> CCCNC(=O)C(Cc1ccc(Cl)cc1)NC(=O)c1ccc(C#N)cc1 (stereo unspecified)
  .	-5	1.0	0.3	.	.	6	-5	-4.2	.
> COc1ccc(/C=N\NC(=O)c2ccccc2F)cc1COc1ccc(F)cc1F
  5	11	0.0	0.0	1.6	15	-4	-13	4.3	1%
> O=c1c2c(C(F)(F)F)cc(C(F)(F)F)nc2[nH]n1-c1ccccc1
  18	-3	-47	-1.0	-2.8	-14	-49	-47	-16	32%
> Cc1ccc(C(=O)CCC(=O)NN2C(=O)NC3(CCCCC3)C2=O)cc1
  .	0	-0.6	0.6	-1.5	-3	7	8	0.5	6%
> O=C(Nn1cnnc1)C1CCCN1S(=O)(=O)c1ccc(F)cc1 (stereo unspecified)
  12	-7	.	-0.1	3.7	-19	.	.	.	0%
> COc1ccc(NC(=O)N2c3ccccc3C(C)=CC2(C)C)cc1
  6	1	4.2	-0.4	5.0	10	20	17	0.5	.
> Cc1ccc(NC(=O)C2CC2C)cc1S(=O)(=O)N1CCOCC1 (stereo unspecified)
  4	1	-25	0.3	2.6	60*	-1	0	2.0	-4%
> O=c1c2cc(Cl)ccc2nc(-c2ccccc2)n1O
  3	-8	2.0	-0.7	-3.0	-5	-43	-71	-14	4%
> CC(C)N(c1ccccc1)c1ccc(NC(=O)CCl)cc1
  ?	-8	-0.8	0.4	4.1	80*	-31	-28	-5.1	14%
> COC(=O)CNc1nc(-c2ccncc2)nc2ccccc12
  1	-8	.	-1.0	1.7	3	.	.	.	7%
> CCCn1c(=S)[nH]c2cc(C(=O)N3CCN(C4CCCCC4)CC3)ccc2c1=O
  0	3	-3.1	-0.4	0.3	16	2	8	0.4	.
> COc1ccc(CCNS(=O)(=O)c2ccc3c(c2)CC(C)N3C(C)=O)cc1OC (stereo unspecified)
  0	2	.	0.7	-2.2	3	.	.	.	1%
> CC1CCCCN1Cc1nc2ccccc2c(=O)[nH]1 (stereo unspecified)
  0	.	.	1.4	-1.2	-14	.	.	.	6%
> O=C1[C@@H]2C(c3ccccc3Cl)=NO[C@@H]2C(=O)N1Cc1ccccc1
  7	0	.	0.3	1.5	7	.	.	.	-2%
> O=C(NC1CCS(=O)(=O)C1)/C(=C/c1ccc(Cl)cc1)NC(=O)c1ccccc1 (stereo unspecified)
  -19	-8	0.1	-0.4	2.1	-12	7	5	-1.8	25%
> COc1ccc(CC(=O)NC(C)c2nnc(SCC(=O)Nc3cc(C)ccc3OC)n2C)cc1 (stereo unspecified)
  29	-2	0.4	0.0	-1.5	0	3	4	-1.9	1%
> Cc1oncc1C(=O)Nc1cccc(C#N)c1
  -10	.	-5.9	0.9	2.5	-13	9	16	-1.2	1%
> Cc1ccc(NC2=NC(c3ccc(C)cc3)n3c(nc(C)cc3=O)N2)cc1 (stereo unspecified)
  -10	-8	.	-0.1	-0.4	-4	.	.	.	-4%
> Cc1ccc(NC(=O)COC(=O)CCc2c[nH]c(=O)[nH]2)cc1
  -7	-7	.	-0.2	-5.1	-8	.	.	.	32%
> CCNC(=S)N1CCN(c2ncccn2)CC1
  -4	-7	.	0.9	1.2	-7	.	.	.	.

Some of these compounds in order of their number in Ecoli rRNA inh OD600, low to high.
structure	Ecoli rRNA inh OD600
COc1ccc(/C=N\NC(=O)c2ccccc2F)cc1COc1ccc(F)cc1F	-13
CCS(=O)(=O)c1ccc2oc(SCC(=O)N3c4ccccc4CC3C)nc2c1 (stereo unspecified)	-7
CCOC(=O)C(C)Oc1ccc(C2NC(=O)NC(C)=C2C(=O)Nc2ccccc2C)cc1 (stereo unspecified)	4

Screens as filed in PubChem.
